Screening results: PubChem, National Center for Advancing Translational Sciences (NCATS)
AmpC nodet inh – Promiscuous and Specific Inhibitors of AmpC Beta-Lactamase (assay without detergent). AID 585, 2007. 71,000 compounds, 1.8% hits. P00811. AmpC nitrocefin hydrolysis, absorbance 480 nm, no detergent; potencies from a single point are estimates. Potency, µM (doses to about 28.7 µM), without a hit: at the top dose activity change, negative = inhibition; active = falling curve, for most hits resting on a single point; inconclusive = weak or doubtful change; inactive = flat or rising curve; also: % of control where 0% means no effect; about half of the hits show no inhibition at the top dose; a quarter of the inactives give rising signals
Target sequence (P00811 whole entry, looked up): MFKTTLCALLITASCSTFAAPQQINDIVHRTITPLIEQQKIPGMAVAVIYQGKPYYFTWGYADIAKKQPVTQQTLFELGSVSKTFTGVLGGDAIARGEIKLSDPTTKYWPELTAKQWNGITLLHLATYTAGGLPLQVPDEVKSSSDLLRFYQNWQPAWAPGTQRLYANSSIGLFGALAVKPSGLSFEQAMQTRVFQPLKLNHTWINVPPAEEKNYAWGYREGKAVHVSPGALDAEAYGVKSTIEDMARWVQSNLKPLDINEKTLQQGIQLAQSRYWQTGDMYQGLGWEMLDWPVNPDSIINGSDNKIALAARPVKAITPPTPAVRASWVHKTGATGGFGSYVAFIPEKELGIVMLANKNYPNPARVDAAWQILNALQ
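Enzyme, pH 7.0 phosphate. Compound titrations were pre-incubated with AmpC for 15 min at room temperature before nitrocefin (stock 800 uM) addition; product formation was recorded at 480 nm every 20 s for 4 min.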
Starred values were filed as active, the others as inactive; & = joins results of further samples; [ ] = dose if it differs, or a comment. Potency is read from the fitted curve at half-maximal effect. Not all compounds are listed (hit frequency here may not be typical).

Compound,AmpC nodet inh
CC(C)(C)NC(=O)C1N(c2cccnc2)C(=O)C2C(C(=O)Nc3ccccc3F)C3(C)C=CC21O3 (stereo unspecified),-0.9%
CN1C(=O)/C(=C2\SC(=S)N(C(CCC(=O)O)C(=O)O)C2=O)c2ccccc21 (stereo unspecified),-10.4%
OC12CCCCC1C(c1ccc3c(c1)OCO3)N(Cc1ccccc1F)CC2 (stereo unspecified),43.1%
CC(C)Cn1c2nc3ccccc3nc2c2c(=O)n(CCN3CCOCC3)cnc21,112.4%
N#Cc1c(SCc2ccccc2)nc(N2CCOCC2)c2c1CCCC2,-12.0%
CC(=O)c1cccc(NC(=O)N2CCN(S(C)(=O)=O)CC2)c1,4.2%
C=C(C)c1cccc(C(C)(C)NC(=O)NCCCn2ccnc2)c1,18.0%
CC(=O)Nc1cc(OC(=O)c2ccco2)cc(OC(=O)c2ccco2)c1,15.0%

Next section
Compound,AmpC nodet inh
CCCc1cc(=O)n2[nH]c(-c3ccccc3)cc2n1,-19.3%
CCc1ccc(NC(=O)C2CCN(S(C)(=O)=O)CC2)cc1,8.7%
O=C(NCC(=O)N(c1cccnc1)C(C(=O)NC1CCCC1)c1ccco1)c1cccs1 (stereo unspecified),-6.2%
CCN1C(=O)N(C)C(N(O)C(=O)NC)C1(C)C (stereo unspecified),1.4%
Cc1cc(N2CCN(c3ccccc3)CC2)n2nnnc2n1,-8.6%
CCCCCCN(C(=O)CCCCCN1C(=O)NC(c2ccc(C3CCCCC3)cc2)C(C(=O)OCc2ccccc2)=C1C)C(C(=O)NCCCC)c1ccc(OCC(=O)OC)c(C(=O)OC)c1 (stereo unspecified),58.0%
O=C(C1CCCN(S(=O)(=O)c2cccs2)C1)N1CCN(C2CCCCC2)CC1 (stereo unspecified),69.3%
CCc1n[nH]c2c1C(=O)CC(C)(C)C2,1.5%

(list continues)
Compound,AmpC nodet inh
NC(N)=NCCCCN=C(N)N,9.3%
Brc1ccc2ncnc(NCc3ccco3)c2c1,-6.7%
N[C@H](Cc1cc(I)c(Oc2cc(I)c(O)c(I)c2)c(I)c1)C(=O)O,-18.2%[12.8 µM]
O=S(=O)(c1ccc(S(=O)(=O)N2CCN(C3CCCCC3)CC2)cc1)N1CCCCCC1,7.7%
COC(=O)c1ccc(NC(=O)COc2ccc(S(=O)(=O)NC(C)C)cc2)cc1,-12.7%
Cc1ccc2[nH]c(=O)c(CN(CCc3ccccc3)Cc3nnnn3CC3CCCO3)cc2c1 (stereo unspecified),115.7%
NS(=O)(=O)c1ccc(NC(=O)CN2CCN(Cc3ccccc3)CC2)cc1,-17.2%
COC(=O)C1=C(C)NC(=O)NC1/C=C/c1ccccc1 (stereo unspecified),-8.5%

Continued:
Compound,AmpC nodet inh
CC(=O)[C@@]1(N=Nc2ccc(S(N)(=O)=O)cc2)CCOC1=O,-8.6%[5.75 µM]
O=C(CCCc1ccccc1)NCCN1CCOCC1,-5.3%
Cc1cc(C)nc(NS(=O)(=O)c2ccc(NC(=O)c3ccc4c(c3)OCO4)cc2)n1,-6.2%
C=CCn1c(SCC(=O)c2cccs2)nc2sc(CC)cc2c1=O,-4.6%
O=C(c1ccncc1)N1CCC2(CC1)CN(c1ccncc1)C2,1.5%
CCC(Sc1nnc(-c2ccc(C)c(Cl)c2)n1CC)C(=O)Nc1nccs1 (stereo unspecified),40.2%
Cc1cc(C)n(C(=O)C(C)N2C(=O)c3ccccc3C2=O)n1 (stereo unspecified),1.0%
Cc1cc2cc(CNC(=O)NC3CCCCC3)ccc2[nH]1,0.9%

Going on with the list.
Compound,AmpC nodet inh
COc1ccccc1CNC(=O)c1ccc(S(=O)(=O)N(C)C)cc1,19.3%
CCSc1nnc2c(Cl)cc(Cl)cn12,-4.5%
NCCCC(=O)O,-5.4%&7.7%
CCOC(=O)c1cccc(NC(=O)CN2C(=O)C3C4C=CC(C4)C3C2=O)c1 (stereo unspecified),3.4%
CCOc1ccc(C2=Nn3c(nnc3-c3ccc(OC)cc3)SC2)cc1,59.5%
COc1ccc(CCN=C2SCC(=O)N2C)cc1OC,11.1%
CCc1oc2ccccc2c1C(=O)CCN1CCCCC1,6.0%
CCCCn1c(O)c(C(C)=Nc2ccc(C(=O)O)cc2)c(=O)[nH]c1=O,-19.6%

Further structures follow.
Compound,AmpC nodet inh
O=C(NCc1ccccc1)c1cnsn1,1.7%
O=c1[nH]c2cc([N+](=O)[O-])c([N+](=O)[O-])cc2[nH]c1=O,-6.6%&2.5%
CCNc1ncc2ncc(=O)n(C)c2n1,1.4%
COC(=O)CCC(=O)Nc1ccc(NC(C)=O)cc1,-10.6%
O=C(NCc1ccco1)C1CCC(CNS(=O)(=O)c2cccc3cccnc23)CC1 (stereo unspecified),9.8%
COc1ccccc1-c1nc(NCc2ccccc2)c2ccccc2n1,51.8%
N#C/C(C(=O)N1CCOCC1)=C1\Nc2ccccc2S1,-7.2%
COc1ccc(CCNC(=O)c2noc3c2CCCC3)cc1OC,24.0%

Continued.
Compound,AmpC nodet inh
COCCCNc1oc(-c2ccccc2F)nc1C#N,22.0%
CC(=O)N1CCc2cc(C(=O)CN3CCN(C(=O)c4ccco4)CC3)ccc21,112.2%
c1ccc(CSc2nncn2-c2ccccn2)cc1,2.7%
COc1ccc2[nH]c(=O)c(CN(C(C)=O)C3CCCCC3)cc2c1,18.2%
C=CCSC1=C(C#N)C(c2ccccc2OC)CC(=O)N1 (stereo unspecified),8.3%
CSc1ccccc1NC(=O)CN(Cc1ccccc1)S(C)(=O)=O,34.2%
O=C(O)c1nn(-c2ccccc2)nc1-c1nn(-c2ccccc2)nc1C(=O)O,-7.4%
Oc1cc(Cl)c(Cl)c(Cl)c1Cl,-22.0%

Other compounds:
canonical_smiles | AmpC nodet inh
CCOC(=O)C1CCCN(C(=O)c2sc3nc(-c4ccccc4)cn3c2C)C1 (stereo unspecified) | 87.1%
O=C(c1ccccc1)c1ccc(N2CCNCC2)cc1 | -6.8%
CCOC(=O)NC(CC(=O)O)c1ccc(OCC)cc1 (stereo unspecified) | -11.2%
CC1(C)CC(=O)c2sc(NS(C)(=O)=O)nc2C1 | -1.9%
O=C(OCCN1C(=O)c2ccccc2C1=O)c1cc(=O)[nH]c2ccccc12 | 50.4%
CCOc1ccccc1N1CCN(C(=O)c2cc3c(s2)CCC3)CC1 | 56.5%
COc1cc(NS(=O)(=O)c2ccc(Br)s2)cc(OC)c1 | -9.5%
CCCc1[nH]nc2c1C1(CCN(C(=O)OCc3ccccc3)CC1)C(C#N)=C(N)O2 | -21.6%
CC(=O)N(O)CCCCCNC(=O)CCC(=O)N(O)CCCCCNC(=O)CCC(=O)N(O)CCCCCN | -1.0%[12.8 µM]
CC(Sc1nc2ccccc2c(=O)n1Cc1ccco1)C(=O)c1ccccc1 (stereo unspecified) | -10.5%
Cc1cccc(CNc2ncnc3ccc(-c4ccccc4C#N)cc23)c1 | -0.5%
Cc1cccc2cc(COC(=O)c3ccccc3)c(=O)[nH]c12 | -6.0%
CCCCCc1c(C)nc(N2CCOCC2)[nH]c1=O | -2.7%
O=C(CCCSc1nc2ccccc2[nH]1)NC1=NCCS1 | -17.2%
N[C@@](CCc1ccccc1)(C(=O)O)c1ccccc1 | 9.5%[5.75 µM]
CCn1nc(NC(=O)c2ccccn2)c2cc3cc(C)ccc3nc21 | 110.6%
CCn1c(CNc2ccc(C)cc2C)nnc1SCC(=O)N1CCCc2ccccc21 | 100.2%
COc1cc(C)nc(Oc2ccc(OCc3ccccc3)nn2)n1 | 19.5%
Cc1ccc2[nH]c(=O)c(COC(=O)C3CCCO3)cc2c1 (stereo unspecified) | -5.3%
COC(=O)C1=C(C)N2C(=O)CSC2=NC1c1ccc2c(c1)OCO2 (stereo unspecified) | 9.5%
CCN(CC)C(=O)CSc1nnc(-c2cc(OC)cc(OC)c2)o1 | 47.2%
CC(=O)CC1(O)C(=O)N(CN2CCN(c3ccccc3)CC2)c2ccccc21 (stereo unspecified) | 9.8%
COc1ccc(Cc2nnc(NC(=O)c3ccco3)s2)cc1OC | 10.9%
CCC1CCCCN1C(=O)c1cc(-c2ccc(Cl)c(Cl)c2)on1 (stereo unspecified) | 12.1%
Cc1nnc(SCC(=O)Nc2cccc(C(F)(F)F)c2)[nH]c1=O | 0.7%
CCn1nc(C)c(/C=C2\CCCC3=C2OC(N)=C(C#N)C3c2c(C)nn(CC)c2C)c1C (stereo unspecified) | 118.3%
COCCSc1nc2sc3c(c2c(=O)n1-c1ccccc1)CCN(C)C3 | -2.7%
CN(C)C(=O)c1ccc(-c2nc(NCc3cccs3)c3ccccc3n2)cc1 | 86.8%
C=C(C)Cn1c(-c2ccccc2)nc2ccccc21 | 9.7%
COc1ccc(S(=O)(=O)NCCSc2ccc(C)cc2)cc1OC | 17.3%

(more compounds)
canonical_smiles | AmpC nodet inh
O=C(COC(=O)C1CCC1)Nc1ccc(OC(F)F)cc1 | 1.4%
CCN(c1ccccc1)S(=O)(=O)c1ccc(F)c(C(=O)O)c1 | -4.0%
COc1ccc(C2CC(=O)c3c(C)nc(N4CCN(Cc5ccccc5)CC4)nc3C2)cc1OC (stereo unspecified) | 112.4%
CCC(C)C(NC(=O)c1ccccc1NC(=O)c1ccc(OC)cc1)C(=O)NCc1ccco1 (stereo unspecified) | 39.2%
CN(C)C(=O)c1ccc(-c2nc(N(C)Cc3ccco3)c3ccccc3n2)cc1 | 116.7%
N#Cc1c(Nc2ccccc2)c(C=NCCN2CCOCC2)c[nH]c1=O | -1.5%
CCCCCSc1nc2c(c(=O)[nH]c(=O)n2C)n1CC | 11.4%
O=C(NCC(=O)N(CC1CCCO1)C(C(=O)NC1CCCC1)c1ccc(F)cc1)c1ccco1 (stereo unspecified) | 25.4%
CN1CCN(CP(=O)(N2CCOCC2)N2CCOCC2)CC1 | -15.3%
O=C(NCc1ccc2c(c1)OCO2)C1CCN(c2ncccn2)CC1 | -13.1%
CNC[C@H](O)c1ccc(O)c(O)c1 | 5.1%&-6.5%
COC(=O)C1=C(C)NC(C)=C(C(=O)OC)C1c1cn(-c2ccccc2)nc1-c1ccco1 | 92.7%
Cc1nc2ccccn2c1-c1nnco1 | -13.0%
COc1ccccc1N1CCN(C(=O)CSc2nc(C)c(Cc3ccccc3)c(=O)[nH]2)CC1 | 61.3%
O=C(NCc1ccccc1)c1cc(-c2cccs2)on1 | -1.8%
c1ccc(-c2cc(-c3nnc4sc(-c5ccccn5)nn34)[nH]n2)cc1 | 9.7%
N=c1nc(N)nc2n1NC(c1ccc(F)cc1)=CS2 | -3.4%
CC1(C)C(=O)C2(C(=O)NCc3ccccc3)CCC1C2 (stereo unspecified) | -7.8%
CCOC(=O)c1cc2n(n1)C(C(F)(F)C(F)(F)F)CC(C)N2 (stereo unspecified) | 15.0%
COC(=O)c1ccc(C(NC(=O)OCc2ccccc2)/C(=C/[C@@H](C)C(=O)NC2CCCCC2)c2cccnc2)cc1 (stereo partly specified) | 116.3%
N#Cc1cn(CCOc2ccccc2F)c2ccccc12 | -1.5%
O=C(CSCc1cnn(-c2ccccc2)c1-n1cccc1)NCCN1CCOCC1 | 72.6%
COc1ccc(CNc2nc(SCC(=O)NCc3ccco3)nc3ccccc23)cc1 | 10.9%
Cc1cc(=O)c2cc(Cl)ccc2[nH]1 | -14.0%
COCCNC(=O)C(c1ccc(C)o1)N(Cc1ccccc1)C(=O)Cn1nnc2ccccc21 (stereo unspecified) | 102.7%
O=C(c1ccco1)N1CCN(S(=O)(=O)c2ccc(Br)s2)CC1 | 16.4%
O=C(CCNS(=O)(=O)c1cccs1)Nc1ccccc1F | -21.8%
Cc1ccc(CNC(=O)C2CCCN(S(=O)(=O)c3cccnc3)C2)cc1 (stereo unspecified) | 26.5%
CCOC(=O)c1c(C)c(C(=O)NCc2ccccn2)c(C)n1C | -3.4%
O=C(Nc1ccccc1)N1CC[C@@]2(CCCN(C(=O)c3ccncc3)C2)C1 | 2.2%

Going on with the list:
canonical_smiles | AmpC nodet inh
c1ccc(Cn2nnc3c(N4CCc5ccccc54)ncnc32)cc1 | -9.5%
CC(=O)c1ccc(NC(=O)CSC(C)C)cc1 | -4.5%
CC(=O)OC(/C(O)=C(\C#N)c1nc2ccccc2[nH]1)c1ccccc1 (stereo unspecified) | 20.5%
CCCCn1nnnc1SCC(=O)Nc1ccc(C)cc1 | 1.9%
Nc1c(C(=O)c2ccccc2)oc2ccc(Br)cc12 | -20.8%
COc1cc(-c2nnc3sc(-c4ccccn4)nn23)cc(OC)c1OC | 14.5%
O=C(O)C1Cc2ccccc2CN1C(=O)c1ccccc1 (stereo unspecified) | -6.9%
CCOC(=O)c1ccc(NC(=O)CCc2nc(-c3ccccc3)no2)cc1 | 4.0%
CC1(C)C(=O)C(c2ccccc2)=C2CN3C(=O)N(CCc4ccccc4)C(=O)C3(Cc3ccc(C(F)(F)F)cc3)C=C21 (stereo unspecified) | 30.1%
Cc1ccc2nc(NC(=O)C3CCCN(S(=O)(=O)c4cccc5nonc45)C3)sc2c1 (stereo unspecified) | -14.4%
CC(CS(=O)(=O)c1cccc2cccnc12)N1CCCCC1 (stereo unspecified) | 18.7%

By substructure, those above with a thiophene ring, fused or not.
canonical_smiles | AmpC nodet inh
O=C(NCC(=O)N(c1cccnc1)C(C(=O)NC1CCCC1)c1ccco1)c1cccs1 (stereo unspecified) | -6.2%
O=C(C1CCCN(S(=O)(=O)c2cccs2)C1)N1CCN(C2CCCCC2)CC1 (stereo unspecified) | 69.3%
C=CCn1c(SCC(=O)c2cccs2)nc2sc(CC)cc2c1=O | -4.6%
CCOc1ccccc1N1CCN(C(=O)c2cc3c(s2)CCC3)CC1 | 56.5%
COc1cc(NS(=O)(=O)c2ccc(Br)s2)cc(OC)c1 | -9.5%
COCCSc1nc2sc3c(c2c(=O)n1-c1ccccc1)CCN(C)C3 | -2.7%
CN(C)C(=O)c1ccc(-c2nc(NCc3cccs3)c3ccccc3n2)cc1 | 86.8%
O=C(NCc1ccccc1)c1cc(-c2cccs2)on1 | -1.8%
O=C(c1ccco1)N1CCN(S(=O)(=O)c2ccc(Br)s2)CC1 | 16.4%
O=C(CCNS(=O)(=O)c1cccs1)Nc1ccccc1F | -21.8%
